Bioassay records (PubChem BioAssay)
Rango complex inh: Rango-importin beta binding inhibition | 340,000 compounds, 0.031% hits | Rango CFP/YFP FRET sensor + importin beta, 45 min | Potency, µM (series often up to 92.2 µM), inactives show at the top dose inhibition of complex formation; active = rising FRET ratio curve, often small or poorly fitted; inconclusive = mostly compound fluorescence or quenching in the first reads; inactive = flat curves in all reads;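 further: potency means the concentration at half of the fitted maximal effect; 0% = DMSO wells and 100% = buffer wells lacking importin beta; nearly all actives have a fitted effect of over 15% in size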
Target sequence (Q14974 whole entry, looked up): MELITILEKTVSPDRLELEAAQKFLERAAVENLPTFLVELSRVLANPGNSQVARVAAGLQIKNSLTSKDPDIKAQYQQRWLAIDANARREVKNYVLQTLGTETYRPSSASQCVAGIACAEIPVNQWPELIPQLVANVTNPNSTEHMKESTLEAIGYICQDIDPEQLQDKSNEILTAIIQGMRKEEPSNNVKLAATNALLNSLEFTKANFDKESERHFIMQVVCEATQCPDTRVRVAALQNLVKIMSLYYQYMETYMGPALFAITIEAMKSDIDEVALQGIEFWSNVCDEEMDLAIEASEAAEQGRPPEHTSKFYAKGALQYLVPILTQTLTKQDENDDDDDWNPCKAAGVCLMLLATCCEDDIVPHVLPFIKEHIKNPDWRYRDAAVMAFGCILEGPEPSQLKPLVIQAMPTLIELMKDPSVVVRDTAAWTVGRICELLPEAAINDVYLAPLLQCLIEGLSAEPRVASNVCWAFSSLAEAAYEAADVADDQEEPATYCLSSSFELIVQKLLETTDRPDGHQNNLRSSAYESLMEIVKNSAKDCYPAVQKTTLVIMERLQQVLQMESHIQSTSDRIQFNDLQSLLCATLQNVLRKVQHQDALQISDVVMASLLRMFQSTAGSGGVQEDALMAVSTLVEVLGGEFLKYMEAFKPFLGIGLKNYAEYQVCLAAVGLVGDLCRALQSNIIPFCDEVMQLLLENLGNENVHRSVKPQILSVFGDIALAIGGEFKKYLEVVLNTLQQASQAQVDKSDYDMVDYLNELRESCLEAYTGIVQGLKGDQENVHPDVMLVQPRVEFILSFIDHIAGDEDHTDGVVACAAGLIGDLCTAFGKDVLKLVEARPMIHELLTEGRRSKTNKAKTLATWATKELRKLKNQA
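FRET biosensor Rango (snurportin 1 IBB between N-terminal EYFP and C-terminal Cerulean), 50 nM in PBS/1 mM DTT/0.02% Tween-20/0.1% BSA, preincubated 5 min RT with compound; 0.125 microM importin beta added, 45 min RT, CFP/YFP FRET ratio read.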
GLA inh pH 4.5: alpha-galactosidase A (human) inhibition, pH 4.5 | P06280 | 230,000 tested, under 10 active | activity change, negative = inhibition, % at 105 µM | purified enzyme, 4-MU-alpha-Gal fluorescence, pH 4.5; inconclusive = small, poorly fitted or top-dose-only inhibition, or a rising curve; inactive = flat fitted curve, though single readings scatter; no compound was filed as active;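 further: 0% = full activity with enzyme and -100% = basal without enzyme; dose as in the result columns while the protocol names 77 µM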
miR-21 FLuc: miR-21 reporter, rising signal; Potency, µM (top dose mostly 38.3 µM), without a hit: at the top dose reporter change, positive = more light; 340,000 tested, under 10 active; HeLa miR-21 FLuc reporter, luciferase, 48 h; AID 2288; active = well fitted rising curve with a large enough effect; inconclusive = small, poorly fitted or top-dose-only effect; inactive = no such curve, though single readings can be large or run the other way;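 further: % of control where 0% means no effect; miR-21 action dims this reporter so a rising signal means less miR-21 action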
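Using DMEM plus 10% FBS, HeLa miR-21-FLuc cells are incubated with test compounds (final up to about 40uM) for 48 hours; firefly luciferase signal is then imaged following reagent-mediated lysis.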
Rango release inh: prevents RanGTP from dissociating the Rango-importin beta complex. O95149+P62826. Biochemical FRET Rango-importin beta, RanGTP-induced dissociation. Potency, µM (doses to about 46.1 µM), for inactives: at the top dose activity change, negative = inhibition. 340,000 compounds, 0.071% hits; active means falling FRET ratio curve, often poorly fitted, with flat reads before Ran was added; inconclusive means other falling curves, or compound fluorescence or quenching; inactive means flat or rising ratio curve;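 further: potency means the concentration at half of the fitted maximal effect; % of control where 0% means no effect; nearly all actives have a fitted effect of over 45% in size; -100% = wells without RanGTP and RCC1; the record marks most hits as doubtful in a second field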
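Compounds preincubate 5 min with complex of recombinant Rango and importin beta in PBS with 1 mM DTT. Ran (0.6 uM) loaded with 2 mM GTP plus 0.2 uM RCC1 starts dissociation; FRET is recorded 45 min later.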
* hit, by the source's call; & = joins results of further samples.

Results for C/C(CS(=O)(=O)c1ccccc1)=N\O ?
Rango complex inh: 0.1%; GLA inh pH 4.5: 5.9; miR-21 FLuc: 1.7%; Rango release inh: -5.6%

Results for O=[N+]([O-])c1ccc(CSc2nnc(SCc3ccc(Cl)cc3)s2)cc1 ?
Rango complex inh: 2.9%; GLA inh pH 4.5: -13.3; miR-21 FLuc: -12.0%; Rango release inh: -3.0%

Results for Cc1ccccc1CSc1nnc(Cn2c(=O)sc3ccccc32)n1C ?
Rango complex inh: -1.2%; GLA inh pH 4.5: -8.7; miR-21 FLuc: -9.6%; Rango release inh: -1.1%

How did C[C@@H]1CC=C[C@@H]2[C@H]1C(=O)N(Cc1ccccc1)[C@H]2c1cccc(Br)c1 do in these assays?
Rango complex inh: 5.4%; GLA inh pH 4.5: -12.7; Rango release inh: -3.9%

Results for CCn1cc(Br)c(C(=O)NC(=S)Nc2ccc(C(=O)OC)cc2)n1 ?
Rango complex inh: 0.7%; GLA inh pH 4.5: 6.5; miR-21 FLuc: -11.8%; Rango release inh: -5.3%

What do the screens show for `COc1ccc(-c2c([C@H]3[C@H]4C=CC[C@@H](C)[C@@H]4C(=O)N3Cc3ccccc3)ccc3ccccc23)cc1OC`?
Rango complex inh: -5.1%; GLA inh pH 4.5: -4.3; miR-21 FLuc: 29.7%; Rango release inh: 15.2%

How did Cc1cccc(OCCCCN2CCNCC2)c1 do in these assays?
Rango complex inh: 0.2%; Rango release inh: 1.0%

Results for CC(C)(C)NC(=O)c1cc2c(ccc3ccccc32)oc1=O ?
Rango complex inh: inconclusive; miR-21 FLuc: -36.7%; Rango release inh: -27.4%

What do the screens show for `COc1ccc(C)cc1S(=O)(=O)N(C)CC(=O)NCc1ccccn1`?
Rango complex inh: 1.1%; miR-21 FLuc: -0.1%; Rango release inh: 3.0%

What do the screens show for `O=c1ccc(OCCOc2ccccc2)nn1-c1ccccc1`?
Rango complex inh: -3.4%; GLA inh pH 4.5: -14.5; miR-21 FLuc: -5.8%; Rango release inh: -9.7%

Quoted at random: two records from the list, in no set order.
What do the screens show for `COc1ccc(C)cc1S(=O)(=O)N(C)CC(=O)NCc1ccccn1`?
Rango complex inh: 1.1%; miR-21 FLuc: -0.1%; Rango release inh: 3.0%

Results for C/C(CS(=O)(=O)c1ccccc1)=N\O ?
Rango complex inh: 0.1%; GLA inh pH 4.5: 5.9; miR-21 FLuc: 1.7%; Rango release inh: -5.6%

The list goes on.
How did CCOc1cc(/C=C2/C(=O)ON=C2C)cc(Br)c1O do in these assays?
Rango complex inh: 1.6%; miR-21 FLuc: -0.1%; Rango release inh: 6.4%

Results for CO/C=C/C#CC1(O)CCN(C)CC1 ?
Rango complex inh: -1.0%; GLA inh pH 4.5: -1.2; miR-21 FLuc: -1.6%; Rango release inh: 15.6%

How did O=C(Nc1ccc(N=Nc2ccccc2)c(NC(=O)C2CCCO2)c1)C1CCCO1 (stereo not drawn) do in these assays?
Rango complex inh: inconclusive; GLA inh pH 4.5: 3.0; miR-21 FLuc: 13.0%; Rango release inh: -9.0%

Results for COc1ccc(OCC(=O)Nc2ccc(NC(=O)c3ccco3)c(C)c2)cc1 ?
Rango complex inh: -1.1%; miR-21 FLuc: -4.0%; Rango release inh: -4.2%

What do the screens show for `Cc1cc(C(C)(C)C)cc(C)c1CCNC(=O)c1ccc[n+]([O-])c1`?
Rango complex inh: 0.0%; miR-21 FLuc: 16.2%; Rango release inh: 10.2%

Results for COCCn1c(N2CCN(c3ccc(OC)cc3)CC2)nc2c1c(=O)[nH]c(=O)n2C ?
Rango complex inh: -0.7%; GLA inh pH 4.5: 10.7; miR-21 FLuc: -1.4%; Rango release inh: -5.4%

Results for O=C1NC[C@@H](c2ccccc2)OC(=O)[C@@H](Cc2ccc(F)cc2)C/C=C\C[C@@H]1CC(=O)N(CCO)Cc1ccccc1 ?
Rango complex inh: 0.7%; Rango release inh: -22.1%

Results for Nn1c(SCC(=O)Nc2c(F)cc(F)cc2Br)nnc1C1CCCCC1 ?
Rango complex inh: 0.3%; miR-21 FLuc: 9.0%; Rango release inh: 5.5%

Results for COC(=O)c1ccc(C)c(NC(=O)Cc2coc3cc(OC)ccc23)c1 ?
Rango complex inh: 2.9%; GLA inh pH 4.5: 0.9; miR-21 FLuc: -5.4%; Rango release inh: 8.6%

How did CCc1ccc2c(c1)C(c1ccc([N+](=O)[O-])cc1)=NNC(c1ccccc1)=N2 do in these assays?
Rango complex inh: -3.1%; GLA inh pH 4.5: -16.6; miR-21 FLuc: -19.5%; Rango release inh: -0.4%

Results for O=C(NC1CCCC1)C(c1cccs1)N(C(=O)c1ccco1)c1ccc2c(c1)OCO2 (stereo not drawn) ?
Rango complex inh: -3.3%; GLA inh pH 4.5: -1.5; miR-21 FLuc: -1.8%; Rango release inh: -1.6%

Results for CCOc1ccc(N(CC(=O)N2CCN(c3ccccc3F)CC2)S(=O)(=O)c2c(C)noc2C)cc1 ?
Rango complex inh: -0.6%; miR-21 FLuc: -0.2%; Rango release inh: 16.2%

How did Cc1c(NC(=O)c2ccccc2N(C)S(=O)(=O)c2ccccc2)c(=O)n(-c2ccccc2)n1C do in these assays?
Rango complex inh: -2.4%; GLA inh pH 4.5: 12.5; miR-21 FLuc: -0.5%; Rango release inh: 18.1%

Results for COc1ccc(C(=O)NC2CCN(C(=O)NCc3ccccc3)CC2)cc1 ?
Rango complex inh: 7.4%; miR-21 FLuc: 1.1%; Rango release inh: 27.8%

Results for CCOC(=O)[C@H]1[C@H]2COc3ccc(C)cc3[C@@H]2N2C(=O)c3ccc(F)cc3NC(=O)[C@@]12C ?
Rango complex inh: 4.3%; Rango release inh: -9.8%

How did Cc1ccc(F)cc1CNC(=O)C1CCC(=O)N(CC2CCCCC2)C1 (stereo not drawn) do in these assays?
Rango complex inh: -2.2%; miR-21 FLuc: -0.4%; Rango release inh: -12.0%

How did CCOc1ccc(CN2CCC(n3nccc3NC(=O)c3ccccc3OC)CC2)cc1 do in these assays?
Rango complex inh: 6.4%; miR-21 FLuc: -1.4%; Rango release inh: 0.2%

What do the screens show for `COc1ccc(NC(=S)Nc2ccc(OC(F)F)cc2)cn1`?
Rango complex inh: -0.6%; GLA inh pH 4.5: -29.0; miR-21 FLuc: -2.7%; Rango release inh: 0.8%

Results for Cc1ccc(NC(=O)Cn2cnc3c(cnn3C(C)(C)C)c2=O)cc1 ?
Rango complex inh: 1.6%; GLA inh pH 4.5: -0.3; miR-21 FLuc: 0.3%; Rango release inh: -12.9%

How did CC(=O)/C(=C\N(C)C)Sc1ccc(Cl)cc1 do in these assays?
Rango complex inh: inconclusive; GLA inh pH 4.5: -1.0; miR-21 FLuc: 4.4%; Rango release inh: -5.0%

Results for N/C(Cc1ccc(Cl)cc1Cl)=N\OC(=O)Cc1ccc(Cl)cc1 ?
Rango complex inh: 0.2%; GLA inh pH 4.5: 2.2; miR-21 FLuc: -5.2%; Rango release inh: 3.6%

What do the screens show for `CCOC(=O)N1CCN(C(=O)Nc2ccc3nc(-c4ccccn4)c(-c4ccccn4)nc3c2)CC1`?
Rango complex inh: inconclusive; GLA inh pH 4.5: -5.2; miR-21 FLuc: 0.7%; Rango release inh: inconclusive

How did Cc1ccc(S(=O)(=O)Cc2ccc(C(=O)N3CCN(c4ccc(F)cc4)CC3)o2)cc1 do in these assays?
Rango complex inh: -2.8%; GLA inh pH 4.5: -1.8; miR-21 FLuc: 22.4%; Rango release inh: 25.0%

Results for Cc1cc(SCC(=O)OC(C)C(=O)N(C)c2ccccc2)nc2ccccc12 (stereo not drawn) ?
Rango complex inh: 0.7%; Rango release inh: -6.6%

What do the screens show for `CCCCNC(=O)CCCCCNS(=O)(=O)c1ccc(Br)cc1`?
Rango complex inh: inconclusive; GLA inh pH 4.5: -4.1; miR-21 FLuc: 6.0%; Rango release inh: 32.0%

How did O=C(NCCN1CCOCC1)c1cc2n(n1)C(C(F)(F)F)CC(c1ccc(F)cc1)N2 (stereo not drawn) do in these assays?
Rango complex inh: 5.0%; GLA inh pH 4.5: -0.1; miR-21 FLuc: -1.0%; Rango release inh: -6.7%

Results for COC(=O)c1ccccc1NC(=O)CSc1n[nH]c(CC(C)C)n1 ?
Rango complex inh: 0.2%; GLA inh pH 4.5: -0.1; miR-21 FLuc: -5.4%&-3.4%; Rango release inh: -13.1%

Results for COc1ccccc1CNC(=O)C1CCCN(S(=O)(=O)c2cccc3nsnc23)C1 (stereo not drawn) ?
Rango complex inh: 1.9%; miR-21 FLuc: 1.9%; Rango release inh: -8.9%

Results for Clc1ccc(CN(CC2CCCO2)C(c2cccs2)c2nnnn2C2CCCC2)cc1 (stereo not drawn) ?
Rango complex inh: 0.1%; GLA inh pH 4.5: -3.2; miR-21 FLuc: -2.0%; Rango release inh: -1.3%

Results for CCOC(=O)C1=C(C)NC2=C(C(=O)C(C(=O)OCC)C(c3cccc(OC)c3)C2)C1c1ccccn1 (stereo not drawn) ?
Rango complex inh: inconclusive; GLA inh pH 4.5: 1.4; miR-21 FLuc: -7.3%; Rango release inh: inconclusive

Results for Cc1ccsc1C1CC(=O)NC2=C1C(=O)CC(C)(C)C2 (stereo not drawn) ?
Rango complex inh: -3.0%; GLA inh pH 4.5: 7.8; miR-21 FLuc: 0.2%; Rango release inh: inconclusive

How did Cc1ccc(N(C(=O)c2csnn2)C(C(=O)NC2CCCC2)c2cccnc2)cc1 (stereo not drawn) do in these assays?
Rango complex inh: 4.9%; miR-21 FLuc: -3.8%; Rango release inh: -20.3%

How did COc1ccc(/C=C(\C#N)c2c[nH]c3ccccc23)cc1 do in these assays?
Rango complex inh: inconclusive; miR-21 FLuc: -12.1%; Rango release inh: -17.7%

How did O=C(O)c1cccc2c1C(=O)N(C1CCCC1)C2 do in these assays?
Rango complex inh: -2.4%; miR-21 FLuc: -1.0%; Rango release inh: 0.1%

Results for O=C(Cc1coc2ccc3ccccc3c12)Nc1nnc(C2CC2)s1 ?
Rango complex inh: 1.5%; GLA inh pH 4.5: -5.0; miR-21 FLuc: 14.0%; Rango release inh: inconclusive

How did Cc1ccc(N(CCC#N)C(=O)COC(=O)c2nc3nc(C)cc(C)n3n2)cc1 do in these assays?
Rango complex inh: -3.9%; Rango release inh: 19.1%

What do the screens show for `O=C(COc1ccc(F)cc1Cl)Nc1ccc(S(=O)(=O)Nc2nccs2)cc1`?
Rango complex inh: -3.3%; Rango release inh: 6.2%

What do the screens show for `CC1Cc2ccccc2N1C(=O)COC(=O)c1cccnc1Cl` (stereo not drawn)?
Rango complex inh: 1.8%; GLA inh pH 4.5: -0.5; miR-21 FLuc: -8.7%; Rango release inh: -0.3%

What do the screens show for `Cc1ccc(C(=O)N(CC(C)C)c2nc3ccccc3s2)o1`?
Rango complex inh: 0.3%; miR-21 FLuc: -6.9%; Rango release inh: 13.0%

Results for Cc1c(NC(=O)/C=C/c2ccc(S(=O)(=O)N3CCOCC3)cc2)c(=O)n(-c2ccccc2)n1C ?
Rango complex inh: -1.1%; GLA inh pH 4.5: -7.5; miR-21 FLuc: 5.7%; Rango release inh: 2.4%

Results for C(=C\c1ccccc1)/CNCC1CCCO1 (stereo not drawn) ?
Rango complex inh: 0.5%; GLA inh pH 4.5: 10.8; miR-21 FLuc: -2.1%; Rango release inh: -3.1%

How did CCOc1ccc2[nH]c3c(NCCN(CC)CC)ncnc3c2c1 do in these assays?
Rango complex inh: 0.0%; miR-21 FLuc: -22.6%; Rango release inh: 11.4%

Results for C[C@]12c3[nH]c4cc(-c5ccco5)ccc4c3CCN1C(=O)[C@@H](CC(=O)NCCN1CCOCC1)C[C@@H]2C(=O)N1CCCCC1 ?
Rango complex inh: -2.5%; Rango release inh: -5.1%

How did CN(Cc1ccc(F)cc1)C(=O)CCc1nnc(-c2ccccc2)o1 do in these assays?
Rango complex inh: -0.8%; GLA inh pH 4.5: 0.8; miR-21 FLuc: -50.8%; Rango release inh: -15.9%

Results for Nc1ccc2c(c1)sc1ccccc12 ?
Rango complex inh: 4.1%; GLA inh pH 4.5: -0.4; miR-21 FLuc: -72.6%; Rango release inh: 3.3%

How did CCCCSc1nc2ccccc2n1CC(=O)O do in these assays?
Rango complex inh: -0.6%; GLA inh pH 4.5: -2.9; miR-21 FLuc: -5.5%; Rango release inh: -10.4%

How did O=C(NCCc1c[nH]c2ccccc12)/C(=C/c1cccnc1)NC(=O)c1ccccc1 do in these assays?
Rango complex inh: 4.8%; GLA inh pH 4.5: 5.5; miR-21 FLuc: 1.5%; Rango release inh: -0.1%

An excerpt; the hit share may differ from the screen's.
